RE007 growth inh: less growth of the S. pombe RE007 Vpr strain. S. pombe RE007 Vpr strain, BacTiter-Glo ATP luminescence, 24 h; control for the full effect not named in the record. Potency, µM (top dose mostly 92.2 µM), for the others: top-dose activity change, negative = less growth. 360,000 tested, 0.21% active. AID 651644; active = well fitted falling curve with a large enough effect; inconclusive = small, poorly fitted or top-dose-only effect; inactive = no such curve, though single readings can be large or run the other way;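 note: % is set by controls: 0 for no effect and ±100 for the full control effect; nearly all actives have a fitted effect of over 50% in size; the assay follows cell death caused by Vpr and the record does not say whether a fall means rescue or toxicity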
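Fission yeast strain RE007, carrying one chromosomally integrated HIV-1 vpr copy, was seeded at OD 0.01 in PMG+AL medium with 23 nL pinned compound. After 24 h at 30 °C and 99% humidity, viability was read by BacTiter-Glo luminescence.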
StopGo reporter: lowers the luciferase signal of an FMDV 2A StopGo reporter; human cells with a luciferase reporter of 2A StopGo recoding; control for the full effect not named in the record; Potency, µM (highest dose often 57.9 µM), for inactives: at the top dose signal change, negative = less light; 410,000 tested, 1.2% active; active = well fitted falling curve with a large enough effect; inconclusive = small, poorly fitted or top-dose-only effect; inactive = no such curve, though single readings can be large or run the other way; tested in HEK293T cells; note: % is set by controls: 0 for no effect and ±100 for the full control effect; nearly all actives have a fitted effect of over 45% in size; luciferase light after 4 h
SARS PLpro yeast: SARS-CoV PLP inhibition in yeast. S. cerevisiae expressing SARS-CoV PLpro, growth rescue; control for the full effect not named in the record. Potency, µM (top dose mostly 32.9 µM), for inactives: at the highest dose activity, positive = growth rescue. 330,000 tested, 0.19% active. AID 485353; active means well fitted rising curve with a large enough effect; inconclusive means small, poorly fitted or top-dose-only effect; inactive means no such curve, though single readings can be large or run the other way; note: 0% is about no effect; nearly all actives have a fitted effect of over 55% in size; growth read by luminescence after 48 h
* hit, by the source's call; ? = inconclusive; [ ] = dose if it differs, or a comment. Potency is the fitted concentration of half-maximal effect.

Compound	RE007 growth inh	StopGo reporter	SARS PLpro yeast
CN1C(C(=O)Nc2ccc(C(=O)O)cc2)=C(O)c2ccccc2S1(=O)=O	-15%	-12%	-15%
O=C(COC(=O)COc1ccc(Cl)cc1Cl)NC1CCCCCC1	3%	-13%	-11%
CN(c1ccc(F)cc1)S(=O)(=O)c1ccc(Cl)c(C(=O)OCC(=O)NCc2ccco2)c1	-2%	-18%	0%
CC(C)CCN(C(=O)CCCSc1nc2ccccc2[nH]1)c1c(N)n(Cc2ccccc2)c(=O)[nH]c1=O	-7%	-12%	5%
Cc1ccccc1NC(=O)N1CCC(C(=O)c2ccc(F)cc2)CC1	14%	-19%	-2%
CCN1CCN(C(=O)c2ccc(Cl)c(S(=O)(=O)N(C)c3ccccc3)c2)CC1	1%	17%	4%[6.58 µM]
COc1ccc2c3c1OC1[C@H](O)CCC4[C@@H](C2)N(C)CC[C@]314 (stereo not given in full)	-6%	0%	-2%
Cc1ccccc1NC(=O)COC(=O)c1ccc(S(=O)(=O)N2CCCC2)cc1	7%	-7%	-1%
O=S(=O)(NCC1COc2ccccc2O1)c1ccccc1F (stereo not given)	9%	10%	-3%
Cc1ccc(Cn2c(O)c(N=NC(=S)Nc3ccccc3F)c3cc(S(=O)(=O)N4CCOCC4)ccc32)cc1	-2%	-11%	2%
Cn1c(N)c(C(=O)COC(=O)COc2cccc(Br)c2)c(=O)n(C)c1=O	6%	-6%	1%
COc1ccccc1N1CCN(CC(O)COCc2cccs2)CC1 (stereo not given)	-6%	0%	1%
CC(C)c1nc2c(s1)CCc1onc(-c3ccc(Cl)cc3)c1-2	0%	3%	-5%
COc1ccc(CNC(=O)C[C@H]2C[C@H](C(=O)N3CCOCC3)[C@@]3(CCC4CCCC4)c4[nH]c5ccc(Cl)cc5c4CCN3C2=O)cc1OC	2%	?	5%
COc1ccc(-c2csc(NC(=O)c3c(C)noc3C)n2)cc1	9%	-26%	-12%

Filtered by structure, the entries above containing an NH in an aromatic ring (two)
Compound	RE007 growth inh	StopGo reporter	SARS PLpro yeast
CC(C)CCN(C(=O)CCCSc1nc2ccccc2[nH]1)c1c(N)n(Cc2ccccc2)c(=O)[nH]c1=O	-7%	-12%	5%
COc1ccc(CNC(=O)C[C@H]2C[C@H](C(=O)N3CCOCC3)[C@@]3(CCC4CCCC4)c4[nH]c5ccc(Cl)cc5c4CCN3C2=O)cc1OC	2%	?	5%

Following part.
Compound	RE007 growth inh	StopGo reporter	SARS PLpro yeast
COc1ccc2ccc(O)c(CN3CC=C(c4ccccc4)CC3)c2c1	-22%	-11%	-10%
CCCn1nc(C(=O)Nc2ccc3c(c2)OCO3)c2ccccc2c1=O	4%	27%	-6%
OCC[C@H]1C[C@H](O)[C@@H](O)[C@]2(Cc3ccccc3CCO2)O1	1%	5%	-15%
C=CC[C@H](CC(=O)N(CCO)Cc1ccccc1)C(=O)N[C@@H](COC(=O)[C@@H](CC=C)Cc1ccc(F)cc1)Cc1ccccc1	3%	?	-17%
Cc1cnc(NC(=O)Cc2cccs2)s1	-2%	37%[activator]	4%
COc1ccccc1/C=C/C(=O)N1CCN(S(=O)(=O)c2cccs2)CC1	4%	6%	1%
COC(=O)[C@@]12CCCN1[C@H](c1ccc(-c3ccccc3)cc1)[C@H]1C(=O)N(C)C(=O)[C@H]12	-2%	-22%	-6%
Cc1ccc(NC(=O)C(C)N2CCN(C)CC2)cc1S(=O)(=O)N1CCOCC1 (stereo not given)	-10%	-9%	1%
CCNC(=O)N(CC)C[C@H]1N[C@@](Cc2ccccc2)(C(=O)OC)[C@H]2C(=O)N(Cc3ccccc3)C(=O)[C@@H]12	0%	-19%	-1%
CC1CC(C)CN(CC(=O)NNC(=O)COc2ccc(Cl)cc2)C1 (stereo not given)	2%	-2%	8%
CC(C)CCN(C(=O)CNC(=O)c1cccs1)C(C(=O)NC1CCCC1)c1ccncc1 (stereo not given)	11%	13%	2%
CCOC(=O)c1ccc(NC(=O)CNNC(=O)COc2ccccc2C)cc1	-1%	-8%	1%
CCOc1ccccc1NC(=S)NCCc1ccc(F)cc1	-11%	22%	0%
Cc1cc(Br)ccc1SCC(=O)NNC(=O)c1ccco1	-9%	9%	-2%
Cc1ccc(NC(=O)c2nc[nH]c2C(=O)N2CCN(C(=O)OC(C)(C)C)CC2)cc1	-19%	-7%	-2%
O=C(COC(=O)CSc1ccc(F)cc1)NCc1ccco1	4%	-19%	0%
CCCNC(=O)C1(CC2CC(c3ccccc3)=NO2)CCN(C(=O)C2CCCC2)CC1 (stereo not given)	-3%	-24%	-7%
CN(CC(=O)NC1CCN(Cc2ccccc2)CC1)S(=O)(=O)c1ccc(Cl)cc1	17%	?	3%
Cn1cnnc1SCC(=O)Nc1cccc(S(=O)(=O)N2CCOCC2)c1	19%	-3%	-1%
COc1ccc(NC(=O)CN(C)C(=O)c2c(C)nn(Cc3ccc(C)cc3)c2Cl)cc1	-13%	-1%	6%
N#CC1(NC(=O)CN2C(=O)NC(c3ccccc3)(c3ccccc3)C2=O)CCCC1	3%	7%	-3%
C[C@@]12C(=O)Nc3ccccc3C(=O)N1[C@H]1c3cc(Cl)ccc3OC[C@@H]1[C@@H]2c1ccccc1	-10%	?	-13%
CCOC(=O)[C@H]1[C@H]2COc3ccccc3[C@@H]2N2C(=O)c3cc(C)ccc3NC(=O)[C@@]12C	0%	-19%	-6%
C#CCOCCOCCOCCNc1nc(N2CCN(C(=O)CCCCCCCCCCNC(=O)[C@@H](CCSC)n3cc(CCO)nn3)CC2)nc(N2CCN(C(=O)CCCCCCCCCCNC(=O)[C@H](CO)n3cc(CCCCCN)nn3)CC2)n1	-7%	-24%	-2%
CN(C)S(=O)(=O)Oc1ccc(C(=O)Nc2ccc([N+](=O)[O-])cc2)cc1	2%	-21%	-1%
CCN(CC)S(=O)(=O)c1cc(NC(=O)CO/N=C(\N)c2ccccc2Cl)ccc1C	4%	-24%	0%
Cc1onc(-c2ccccc2)c1C(=O)OCC(=O)Nc1ccc(Cl)cc1	-25%	0%	1%
O=C(Nc1ccccc1F)c1ccc(S(=O)(=O)N2CCCCCC2)cc1	12%	21%	1%
COc1ccc(-n2nc3c(c2NC(=O)c2ccc(S(=O)(=O)N4CCOCC4)cc2)CS(=O)C3)cc1 (stereo not given)	-1%	-2%	-1%
Cc1cc(NC(=O)CSCC(=O)Nc2cc(C(F)(F)F)ccc2N2CCOCC2)no1	3%	-20%	8%

Continuation.
Structure	RE007 growth inh	StopGo reporter	SARS PLpro yeast
CCOc1ccc(C(=O)N2CCN(CC(=O)N3CCCC3)CC2)cc1OCC	7%	-3%	-6%
CC(NC(=O)c1ccco1)C(=O)OCc1cccc(C(F)(F)F)c1 (stereo not given)	-6%	6%	-3%
O=[N+]([O-])c1ccc(C[n+]2cccc3c4ccccc4ccc32)cc1	?	-29%	-2%
COc1ccc(Cl)cc1NC(=O)C1COc2ccccc2O1 (stereo not given)	-22%	36%[activator]	-12%
Cn1c(=O)c2ncn(CC(=O)Nc3nc(-c4ccc(Cl)cc4)cs3)c2n(C)c1=O	-11%	?	1%
NCCN1CCN(S(=O)(=O)c2ccc([N+](=O)[O-])cc2)C=C1c1ccc(Cl)cc1	-2%	-1%	-1%
O=C(CN1C(=O)C(=O)N(C2CCCC2)C1=O)NCCc1ccc(Cl)cc1Cl	16%	-13%	-2%
CN(C(=O)CN1C(=O)NC(c2ccccc2)(c2ccccc2)C1=O)C1CCS(=O)(=O)C1 (stereo not given)	-8%	-4%	11%
Cc1cc(C)c(NC(=O)CNC(=O)[C@@H]2CCCN2C(=O)c2cccs2)c(C)c1	6%	6%	-7%
CC(=O)OCC1(C)CN(c2ccccc2)NC1=O (stereo not given)	1%	7%	-3%
CCCCNC(=O)c1onc(CSc2ccccc2)c1C(=O)NCCCC	-13%	-22%	1%
O=C(CNC(=O)c1ccccc1F)NCC(c1cccs1)N1CCOCC1 (stereo not given)	-6%	14%	1%[6.58 µM]
O=C(CN1C(=O)NC2(CCCCC2)C1=O)Oc1ccc2ccc(=O)oc2c1	16%	-6%	-3%
Nc1nc(N)nc(Cc2ccccc2O)n1	0%	-7%	0%
CCC1(c2ccc(Cl)cc2)NC(=O)N(CC(=O)NC2(C#N)CCCCC2)C1=O (stereo not given)	-3%	-15%	4%
O=C(NN=Cc1ccc(OC(F)F)cc1)c1ccc(NS(=O)(=O)c2cccs2)cc1	1%	31%[activator]	1%
O=C1/C(=C/c2ccco2)SC(=S)N1C1CCS(=O)(=O)C1 (stereo not given)	10%	0%	1%
O=C(/C=C/c1cccs1)NNC(=O)c1ccccc1	-7%	48%[activator]	8%
O=C1CN(C(=O)COC(=O)c2c(F)cccc2Cl)c2ccccc2N1	-20%	-1%	-7%
CCc1ccc(OCC(=O)c2c(O)c3ccccc3oc2=O)cc1	-4%	25%	-2%
COc1ccc(-n2c(SCC(=O)NC3CC3)nc3ccccc3c2=O)cc1OC	5%	7%	0%
CC(=O)NC(=S)NNC(=O)C(c1ccccc1)c1ccccc1	20%	0%	-5%
CC1CN(C(=O)c2ccccc2OCc2ccccc2Cl)CC(C)O1 (stereo not given)	16%	-11%	-8%
Clc1ccc(C2=NCCn3nc4ccccc4c32)cc1	-2%	5%	6%
COc1cccc(NC(=O)COC(=O)c2c(C)noc2C)c1	-15%	0%	0%
C/C(=N\Nc1ccc(S(=O)(=O)N2CCCCC2)cn1)c1cccc(Br)c1	12%	-9%	-15%
CN(C(=O)c1ccccc1C(=O)OCC(=O)c1ccc(F)cc1)c1ccccc1	-21%	11%	9%
CC1(NC(=O)CCS(=O)(=O)c2ccc(Cl)cc2)CCS(=O)(=O)C1 (stereo not given)	5%	-15%	-2%
Cc1ccc(C2(c3ccc(C)cc3)NC(=O)N(CC(=O)NCCCN3CCCC3=O)C2=O)cc1	-7%	-16%	-20%
Cc1ccccc1Nc1c(-c2cccnc2)nc2ccc(Br)cn12	2%	-29%	-7%
COC(=O)C1=C(c2ccc(F)cc2F)C[C@@H]2CC[C@H]1N2C(=O)NC1CC1	13%	-4%	-2%
COc1cccc(C(=O)N(c2ccc(C)cc2)C2C=CS(=O)(=O)C2)c1 (stereo not given)	0%	-9%	1%
O=C(CN1C(=O)NC2(CCCCCC2)C1=O)NCCc1ccccc1	-8%	-6%	-6%

Among those listed so far, 12 contain an aryl methoxy group.
Structure	RE007 growth inh	StopGo reporter	SARS PLpro yeast
COc1ccc2c3c1OC1[C@H](O)CCC4[C@@H](C2)N(C)CC[C@]314 (stereo not given in full)	-6%	0%	-2%
COc1ccccc1N1CCN(CC(O)COCc2cccs2)CC1 (stereo not given)	-6%	0%	1%
COc1ccc(CNC(=O)C[C@H]2C[C@H](C(=O)N3CCOCC3)[C@@]3(CCC4CCCC4)c4[nH]c5ccc(Cl)cc5c4CCN3C2=O)cc1OC	2%	?	5%
COc1ccc(-c2csc(NC(=O)c3c(C)noc3C)n2)cc1	9%	-26%	-12%
COc1ccc2ccc(O)c(CN3CC=C(c4ccccc4)CC3)c2c1	-22%	-11%	-10%
COc1ccccc1/C=C/C(=O)N1CCN(S(=O)(=O)c2cccs2)CC1	4%	6%	1%
COc1ccc(NC(=O)CN(C)C(=O)c2c(C)nn(Cc3ccc(C)cc3)c2Cl)cc1	-13%	-1%	6%
COc1ccc(-n2nc3c(c2NC(=O)c2ccc(S(=O)(=O)N4CCOCC4)cc2)CS(=O)C3)cc1 (stereo not given)	-1%	-2%	-1%
COc1ccc(Cl)cc1NC(=O)C1COc2ccccc2O1 (stereo not given)	-22%	36%[activator]	-12%
COc1ccc(-n2c(SCC(=O)NC3CC3)nc3ccccc3c2=O)cc1OC	5%	7%	0%
COc1cccc(NC(=O)COC(=O)c2c(C)noc2C)c1	-15%	0%	0%
COc1cccc(C(=O)N(c2ccc(C)cc2)C2C=CS(=O)(=O)C2)c1 (stereo not given)	0%	-9%	1%

These rows are one share of the data; the hit share may differ from the screen's.
